# Assay outcomes deposited in PubChem BioAssay by several laboratories.
# BJeLR lethal = kills HRASV12-expressing BJeLR cells; BJeLR (HRASV12) viability, CellTiter-Glo ATP luminescence, 48 h; reference of the scale not given here; inhibition, % (test concentration not listed); 0.17% of 300,000 active; AID 1554;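 active = replicate mean above 50%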;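 also: 50 nL library stock added to about 25 µL; numbers are from one replicate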
# RN4220 kill = kills Staphylococcus aureus RN4220 | inhibition, % (no concentration beside the values) | 0.33% of 330,000 active | S. aureus RN4220 growth, OD600, 16 h | AID 1259311;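 active = z-score of -3 or lower and OD600 up to 0.18 on both plates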;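 also: plate controls were untreated cells for no effect and reference antibiotic for full effect; stock transfer was 100 nL into about 80 µL; one replicate is shown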
# ugtP null kill = growth inhibition of S. aureus ugtP deletion strain | growth inhibition, % (no concentration beside the values) | S. aureus RN4220 ugtP deletion, OD600 growth, 16 h; some inactives read as strong as hits | 0.54% of 330,000 active;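 active = z-score under -3 and OD600 up to 0.15 on both plates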;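 also: plate controls were untreated wells for no effect and antibiotic for full effect; wells of about 80 µL received 100 nL stock; the first replicate is given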
# PrP UTR inh = inhibition of PrP 5' UTR reporter expression; cell-based PrP 5' UTR mRNA reporter, plate reader; inhibition, % (concentration not given with the values); 0.35% of 340,000 active;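 active = every replicate at 50% or more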;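 also: 0 = median of the neutral control wells; tested in H4 reporter cells; numbers are from one replicate; inactives centre near -14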
# Bead autofluor = counter-screen for toxin protease inhibitors: compound fluorescence; 3.1% of 360,000 active; fluorescence intensity (concentration not given with the values); compound autofluorescence counterscreen, microsphere flow cytometry; stronger effect = higher value;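 active = at least 3 SD above the mean of all compounds, about 16000 in these data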;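 also: 100 nL of 1 mM stock went into each well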
# Mtb hypoxia inh = Mtb hypoxia fluorescent reporter inhibition | M. tuberculosis hypoxia-regulated fluorescent reporter, fluorescence | fluorescence inhibition, % (no concentration beside the values) | 0.1% of 300,000 active | AID 1159583;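 active = 35 to 45% if threefold the growth effect, above 45% if 1.5-fold the growth effect; inactive = the rest, general growth blockers included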;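 also: wells of about 50 µL received 100 nL stock; 0% = vehicle wells and 100% = reference inhibitor wells; whole bacteria with a GFP reporter of the hypoxia response; strong numbers were not always called active; many hits fall short of the cut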
# Mtb hypoxia inh growth = second read-out of Mtb hypoxia inh, no call of its own (marks repeat the call); growth inhibition, %; measured here: M. tuberculosis growth (absorbance);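 0% = vehicle and 100% = reference antibiotic; read after six days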
# The depositor's hits bear a star; · = no result given.
item	SMILES	BJeLR lethal	RN4220 kill	ugtP null kill	PrP UTR inh	Bead autofluor	Mtb hypoxia inh	Mtb hypoxia inh growth
1	CC(C)CCNC(=O)CCCOc1ccccc1	-12.2	-1.5	1.6	-11.3	2702	·	·
2	COc1ccc(C2C(C(=O)c3ccccc3)N3c4ccccc4C=CC3C2[N+](=O)[O-])cc1 (configuration not stated)	·	2.9	-7.9	-13.3	4295	-6.5	7.4
3	Cc1cccc(CS(=O)(=O)c2cn(CC(=O)N3CCOCC3)c3ccccc23)c1	4.6	2.0	-1.5	-4.6	5975	3.2	10.2
4	CCCC(=O)Nc1cc2c(cc1C(C)=O)OCCO2	-6.3	4.4	2.1	-14.2	3869	9.5	0.2
5	COCCCNC(=O)Cn1nnc(-c2ccc(NC(=O)c3ccccc3F)cc2)n1	4.0	-1.3	-3.2	-30.1	3695	·	·
6	CCC1(C)Cc2ccccc2-c2nc(SCC(N)=O)[nH]c(=O)c21 (configuration not stated)	-3.1	2.8	0.2	-14.1	3642	-11.0	0.8
7	O=C(COC(=O)CSc1ccc([N+](=O)[O-])cc1)NCCCc1ccccc1	8.7	1.6	0.3	-0.7	5737	-11.0	5.9
8	Cc1nc2ccccc2nc1CN1CCN(Cc2ccc(F)c(F)c2)C(CCO)C1 (configuration not stated)	8.1	3.4	9.9	-2.0	3952	-2.9	7.3
9	CCOC(=O)c1ccc(N=C2SC(C(=O)Nc3ccc(C(=O)O)cc3)CC(=O)N2Cc2cccs2)cc1 (configuration not stated)	5.5	10.5	33.5	-17.2	4683	-0.5	-2.4
10	O=C(CSc1nnc(SCC(=O)NCc2ccc3c(c2)OCO3)s1)NCc1ccc2c(c1)OCO2	·	-1.0	-5.4	-15.0	9095	-0.6	0.1
11	Cc1nc(N2CCCCC2)c2ccsc2n1	2.7	3.3	4.2	-15.5	9620	11.5	6.5
12	C=CCn1c(C)c(C(C)=O)c(N2CCOCC2)nc1=S	5.3	3.5	0.1	-31.0	6855	·	·
13	Cc1cc(Br)c(NC(=O)Cn2c([N+](=O)[O-])cnc2C)cc1C	-1.5	-0.9	6.2	-21.7	3152	6.3	6.1
14	Cc1cc(C)nc(N2CCCC(C(=O)NCC(c3ccccc3)c3ccccc3)C2)n1 (configuration not stated)	-6.1	-4.7	22.4	-24.9	8518	13.8	10.7
15	CCn1nc(C(=O)Nc2ccc(S(=O)(=O)Nc3nccs3)cc2)c2ccccc2c1=O	-0.2	-2.2	-5.6	-8.8	5317	·	·
16	Cc1cc(C)nc(Oc2ccc(Br)cc2Br)n1	-9.3	5.5	12.1	-25.3	2268	16.5	11.3
17	O=C(c1ccc2snnc2c1)N1CCN(c2ccccn2)CC1	-6.6	17.9	14.7	-13.6	2596	-0.8	2.8
18	Cc1ccnc(NCc2ccc(Cl)cc2)c1	-0.4	4.0	4.8	-19.8	3513	-6.1	6.5
19	CCC1CCCCN1CCCNC(=O)CCNC(=O)Cn1cnc2ccccc2c1=O (configuration not stated)	-11.9	-4.0	-1.2	-19.5	4410	-9.6	-9.3
20	COc1ccc(N(CC(=O)NN=Cc2cccnc2)S(=O)(=O)c2ccccc2)c(OC)c1	·	-1.2	-6.8	·	·	-8.5	3.9
21	O=C(CCSc1nnc2ccc3ccccc3n12)Nc1ccc(F)cc1	7.9	10.9	-2.8	1.0	3449	·	·
22	CCOC(=O)c1c(Nc2ccccc2N)cc(C)nc1C	·	6.0	2.2	-11.1	11380	10.1	4.8
23	CCOC(=O)C1C2COc3ccc(Cl)cc3C2N2C(=O)CN(Cc3ccc(Cl)cc3)C(=O)[C@@]12C (some centres not stated)	·	1.2	5.5	·	·	9.8	-0.2
24	COc1ccccc1N1CCN(C(=O)CCc2nnc3ccc(N4CCCC4)nn23)CC1	-3.9	1.2	2.7	-18.7	5073	-3.5	11.8
25	CCOC(=O)COc1ccccc1C1Nc2ccccc2C(=O)N1c1cccc(Cl)c1 (configuration not stated)	-11.8	1.4	-18.8	-89.9	7271	-11.4	-4.9
26	CC(C)c1ccc(N2C(=O)[C@@H]3Cc4ccccc4CN3C2=O)cc1	6.0	-5.8	-11.2	-45.0	2603	2.6	6.5
27	N/C(=N\S(=O)(=O)c1ccc(Cl)cc1)N1CCOCC1	-4.1	2.8	3.1	-12.0	4099	2.1	1.5
28	Cc1ccc(S(=O)(=O)Nc2cccc(C(=O)N3CCOCC3)c2)c(C)c1NS(C)(=O)=O	-6.7	4.2	0.0	-12.8	6005	9.2	4.8
29	O=C(NCc1ccco1)c1ccccc1	-0.2	2.4	1.6	-21.3	·	16.3	11.3
30	CCOC(=O)NC1C=CS(=O)(=O)C1 (configuration not stated)	-2.6	2.9	5.3	12.5	3627	·	·
31	O=C1CC(c2ccccc2)C(=O)N2C(=O)CC(c3ccccc3)C(=O)N12 (configuration not stated)	·	2.0	5.7	-14.2	3040	10.0	5.7
32	CCOC(=O)c1c(CSC(=N)N)n(-c2ccc(Br)cc2)c2cc(Br)c(OC(C)=O)cc12	·	-0.1	-7.8	-29.7	9632	6.3	-2.6
33	O=C(/C=C/c1ccco1)N/C(=C\c1ccccc1)C(=O)NCCc1nc2ccccc2[nH]1	-1.4	0.4	2.3	-19.5	1905	-10.7	-1.2
34	O=C(CSc1ccc(-c2nc3ccccc3[nH]2)cn1)Nc1ccc(S(=O)(=O)N2CCCC2)cc1	7.7	·	·	-22.9	2289	·	·
35	O=C(c1cccs1)N1CCN(Cc2ccccc2[N+](=O)[O-])CC1	-6.0	-0.2	11.4	-21.1	2022	-6.9	2.3
36	CC(C)(C)S(=O)(=O)N1Cc2cc(CO)cc(CCO)c2[C@H]1CCO	·	2.3	1.0	-20.3	3667	-7.7	5.2
37	CCOC(=O)c1c(C)[nH]c(C)c1C(=O)COC(=O)c1cccs1	·	16.4	-7.8	-20.3	3606	3.4	7.0
38	Cc1ccc(-c2nc(CS(=O)CC(=O)N3CCN(c4ncccn4)CC3)c(C)o2)cc1 (configuration not stated)	-10.8	·	·	2.8	4306	·	·
39	COc1ccc(C2CC(=O)C=C(c3ccc(C)c(F)c3)C2)cc1 (configuration not stated)	·	5.1	8.1	·	·	23.1	8.2
40	Cc1ccccc1NC(=O)CSc1nnc2ccc(-c3ccccn3)nn12	-4.9	2.0	3.9	-4.3	5353	-2.8	4.9
41	O=C(N/N=C/c1ccc(Cl)cc1Cl)c1ccncc1	-0.9	·	·	-22.4	4084	·	·
42	CCCNC(=O)c1c(Cl)cnn1-c1ccc(C)cc1	-0.7	1.7	11.2	-91.9	3376	2.5	4.4
43	CCOC(=O)c1sc(/N=C/C2=C(O)CC(C)(C)CC2=O)c(C(=O)OCC)c1C	4.5	·	·	-17.8	3277	·	·
44	COc1ccc(CN2C(=O)c3cccnc3C2=O)cc1S(=O)(=O)NC1CCCCC1C (configuration not stated)	-1.4	4.5	5.7	-8.4	5886	12.2	-0.1
45	CC(=O)OCC[C@H](NS(=O)(=O)OCC(Cl)(Cl)Cl)c1ccccc1	-2.5	·	·	-14.9	3719	·	·
46	CCOc1ccccc1C=NN1CCN(Cc2ccccc2)CC1	·	3.9	1.0	·	·	19.8	0.8
47	Cc1ccc(OCC(=O)N(Cc2ccc(N(C)C)cc2)C2CCS(=O)(=O)C2)cc1C (configuration not stated)	-3.1	-1.1	-0.8	-34.1	3505	-2.0	-7.4
48	CC(=NNC(=O)c1c(Br)c(C)nn1C)c1cccc(NC(=O)c2ccccc2C)c1	·	1.8	11.1	·	·	2.4	2.4
49	COc1ccc(NC(=O)CSc2nc3[nH]c(=O)cc(O)c3s2)c(OC)c1	·	8.5	1.4	-8.4	3986	5.7	-6.4
50	CC(=O)Nc1ccc(NC(=O)C(C)NC(C)c2cccc3ccccc23)cc1 (configuration not stated)	-8.0	4.9	1.9	-1.1	4398	7.1	4.1
51	Cc1ccc2oc(=O)c3cnn(CC(=O)NCCC(C)C)c3c2c1	12.7	-7.2	-6.3	-12.1	6387	2.5	0.5
52	O=C(NCCCN1CCOCC1)c1ccc(Cl)c(S(=O)(=O)N2CCCCCC2)c1	4.6	1.0	-5.9	-19.5	9426	-2.4	9.3
53	COCCNc1nc(N)c([N+](=O)[O-])c(NC2CCCCC2)n1	-2.7	4.9	13.2	-2.1	2977	8.6	8.0
54	C=CCN1C(=O)/C(=C\c2ccc(Cl)cc2)N=C1SCC(=O)NC1CCCCC1	-8.4	·	·	-7.1	3323	·	·
55	CCS(=O)(=O)Nc1ccc(-c2cc(-c3ccccc3)c3cc(C)ccc3n2)cc1	5.0	-7.9	18.3	-11.5	2094	-2.2	6.5
56	Cn1c(=O)c2c(nc(Oc3ccc4c(c3)OCO4)n2Cc2ccc(Cl)cc2)n(C)c1=O	0.6	5.1	5.5	-2.4	2470	·	·

# Later entries:
item	SMILES	BJeLR lethal	RN4220 kill	ugtP null kill	PrP UTR inh	Bead autofluor	Mtb hypoxia inh	Mtb hypoxia inh growth
57	CC(=O)Nc1nonc1NC(=O)c1ccc(C(C)(C)C)cc1	14.1	10.2	-3.5	-51.6	8000	7.2	13.1
58	Cc1ccc(C(=O)Nc2scc(-c3ccccc3)c2C(=O)O)o1	6.7	12.7	3.1	-26.2	4751	0.3	1.1
59	Cc1ccc(C(=O)C2CCN(CC(=O)NCc3ccc(F)cc3)CC2)cc1	5.9	·	·	-6.4	3990	·	·
60	CC1(C)Cc2c(cnn2-c2ccc(F)cc2)C(NC(=O)c2ccco2)C1 (configuration not stated)	-2.2	-0.8	-0.4	-8.7	5734	-2.0	1.0
61	CC(C)n1c(-c2ccc(C(C)(C)C)cc2)n[nH]c1=S	-1.1	2.9	-9.0	·	8289	-9.2	-1.4
62	O=C(CNC(=S)N(Cc1ccccc1)Cc1cccs1)NCc1ccc(F)cc1	-2.4	10.2	11.5	10.7	3194	-8.3	-0.2
63	CCCC1CCCO[C@@](C(=O)NCc2cc(C)n(C)n2)(C(F)(F)F)C1 (some centres not stated)	·	5.4	-6.1	·	·	16.6	11.2
64	O=C(NC1CC1)c1c(O)c2ccccc2[nH]c1=O	-1.9	5.7	-5.4	·	4114	1.5	11.3

# Next part; the last 3 above are carried over.
item	SMILES	BJeLR lethal	RN4220 kill	ugtP null kill	PrP UTR inh	Bead autofluor	Mtb hypoxia inh	Mtb hypoxia inh growth
62	O=C(CNC(=S)N(Cc1ccccc1)Cc1cccs1)NCc1ccc(F)cc1	-2.4	10.2	11.5	10.7	3194	-8.3	-0.2
63	CCCC1CCCO[C@@](C(=O)NCc2cc(C)n(C)n2)(C(F)(F)F)C1 (some centres not stated)	·	5.4	-6.1	·	·	16.6	11.2
64	O=C(NC1CC1)c1c(O)c2ccccc2[nH]c1=O	-1.9	5.7	-5.4	·	4114	1.5	11.3
65	Cc1cc(=O)n(CCCc2ccccc2)[nH]1	6.5	25.1	1.5	-2.5	4019	13.0	7.2
66	COc1cc(/C=C(\C#N)C(=O)Nc2cccc(C(=O)O)c2)ccc1OCc1ccc(Cl)cc1	-7.7	·	·	-56.4	6148	·	·
67	Cc1cccc(NC(=O)NC2(C(=O)NCc3ccco3)CCCCC2)c1	-8.1	-2.4	9.3	-3.1	3733	-3.2	4.6
68	CCN(CC(=O)Nc1cc(Cl)ccc1C)C(=O)Cc1ccsc1	·	4.5	6.3	-15.1	3841	3.2	2.0
69	CCC(C(=O)NC1CCN(C)CC1)c1ccccc1 (configuration not stated)	2.2	3.2	4.4	-8.6	3641	10.3	8.3
70	Cc1c(Cl)cccc1NC(=O)[C@@H](NC(=O)c1ccccc1Cl)C(C)C	7.2	19.3	-3.4	-15.1	2600	14.0	2.7
71	CCNS(=O)(=O)c1ccc(NC(=O)Cn2cc([N+](=O)[O-])cn2)cc1	0.7	3.9	3.7	9.4	3017	-1.0	2.0
72	C=CCc1ccc(OC(=O)NC2CCCCC2)c(OC)c1	-2.3	0.2	10.9	-23.3	3830	6.5	9.4
73	NC1=NC[C@@H](Cc2ccc(O)cc2)N1CCC12CC3CC(CC(C3)C1)C2	0.8	·	·	4.7	2913	·	·
74	C/C(=N/NS(C)(=O)=O)c1ccc2ccccc2c1	2.6	·	·	-20.8	7982	·	·
75	COc1ccc(OCCNC(=O)c2ccc(C)cc2)cc1	-1.3	1.4	10.2	-36.7	3820	22.4	14.7
76	Cc1cnc(C(=O)OCC(=O)N2CCc3ccccc32)cn1	5.3	5.0	-0.6	-0.1	2119	7.2	13.2
77	CCc1sc(C(=O)Nc2cc(S(=O)(=O)N3CCOCC3)ccc2OC)cc1C	·	1.0	-7.1	2.2	3683	3.7	23.2
